# Assay outcomes deposited in PubChem by National Center for Advancing Translational Sciences (NCATS).
# AmpC inh no det: blocks E. coli AmpC beta-lactamase in absence of detergent; 71,000 tested, 1.8% active; Potency, µM (series often up to 28.7 µM), inactives show at the top dose activity change, negative = inhibition; AmpC nitrocefin hydrolysis, absorbance 480 nm, no detergent; potencies from a single point are estimates; active = falling curve, for most hits resting on a single point; inconclusive = weak or doubtful change; inactive = flat or rising curve; further: % of control where 0% means no effect; about half of the hits show no inhibition at the top dose; a quarter of the inactives give rising signals
# Target sequence (P00811 whole entry, looked up): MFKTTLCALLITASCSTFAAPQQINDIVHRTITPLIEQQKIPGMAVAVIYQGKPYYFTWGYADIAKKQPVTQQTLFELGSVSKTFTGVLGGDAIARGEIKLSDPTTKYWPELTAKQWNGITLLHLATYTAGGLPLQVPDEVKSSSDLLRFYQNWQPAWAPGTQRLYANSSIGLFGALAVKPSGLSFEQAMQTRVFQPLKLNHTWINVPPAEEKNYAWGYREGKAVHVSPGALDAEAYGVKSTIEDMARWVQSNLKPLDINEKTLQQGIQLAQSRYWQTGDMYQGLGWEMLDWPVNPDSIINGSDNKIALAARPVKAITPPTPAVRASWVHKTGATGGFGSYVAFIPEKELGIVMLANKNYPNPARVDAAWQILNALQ
#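 AmpC, 20 mM phosphate pH 7.0; 15 min cpd preinc, RT; start with nitrocefin (800 uM stock); A480 kinetic read, 20 s intervals, 4 min. No-enzyme wells = negative control.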
# Numbers without * were called inactive; & = joins results of further samples; [ ] = remark or other dose. Potency means the concentration at half of the fitted maximal effect. These rows are one share of the data (hit frequency here may not be typical).
# The opening 5 records, to show the layout:
SMILES,AmpC inh no det
O=C(NCCOC(=O)c1cccs1)c1cccnc1,-4%
CCNc1nc(N)nc(Oc2ccc(OCCOc3ccccc3)nn2)n1,17%
O=C(c1cnccn1)N1CCC2(CCN(Cc3ccncc3)CC2)CC1,5%
CCOC(=O)c1ccc(NS(=O)(=O)c2cc(C)ccc2OC)cc1,4%
Cc1ccccc1-n1nc2c(c1NC(=O)c1c(-c3ccccc3Cl)noc1C)CS(=O)(=O)C2,46%

# The whole of this part, from the first entry:
SMILES,AmpC inh no det
O=C(NCCOC(=O)c1cccs1)c1cccnc1,-4%
CCNc1nc(N)nc(Oc2ccc(OCCOc3ccccc3)nn2)n1,17%
O=C(c1cnccn1)N1CCC2(CCN(Cc3ccncc3)CC2)CC1,5%
CCOC(=O)c1ccc(NS(=O)(=O)c2cc(C)ccc2OC)cc1,4%
Cc1ccccc1-n1nc2c(c1NC(=O)c1c(-c3ccccc3Cl)noc1C)CS(=O)(=O)C2,46%
Cc1ccc(NC(=O)COc2nc(C)cs2)cc1,-12%
O=c1[nH]cc(CS(=O)(=O)Cc2c[nH]c(=O)[nH]c2=O)c(=O)[nH]1,13%[5.75 µM]
O=C(CCCCn1c(=O)[nH]c2ccccc2c1=O)NC1CCN(Cc2ccccc2)CC1,3.2µM*[single pt active]
O=C(CSc1nnc(-c2ccc(Cl)s2)o1)N1CCCc2ccccc21,31%
CC(C)Oc1ccc(C(=O)NCc2cccnc2)cc1,1%
Cc1ccc(Cn2ccc(NC(=O)c3noc4c3CCCCC4)n2)cc1,16%
CCC(=O)Nc1nc(C)cc(SCC(=O)OC)n1,-5%
CCCCC(=O)Nc1ccc(C(=O)NCc2ccncc2)cc1,5%
Cc1noc(C)c1C(=O)N1CCC2(CCN(Cc3nccs3)CC2)CC1,30%
CCOC(=O)N1CCN(C(=O)c2nn(-c3ccc(C)cc3)c(=O)c3c2c2ccccc2n3C)CC1,76%
CCCS(=O)(=O)N1CCCC(C(=O)NCCN2CCCCC2C)C1 (centres undefined),-7%
CCOC(=O)CC(=O)CSC1=C(C#N)C(c2ccccc2OC)CC(=O)N1 (centres undefined),11%
Cc1nc2cc(C(=O)N3CCC4(CC3)OCCO4)ccc2n1-c1ccc(Br)cc1,110%
CC(C)CCC[C@@H](C)[C@@H]1CC[C@@H]2[C@H]3CC[C@H]4C[C@@H](N)CC[C@@]4(C)[C@@H]3CC[C@]21C,-1%[5.75 µM]
O=C(Cn1ncc2c1-c1ccccc1OC2)N1CCc2ccccc21,37%
Cc1c(C(=O)NCC2CCCO2)oc2ccc(S(=O)(=O)N3CC(C)CC(C)C3)cc12 (centres undefined),64%
CC(Sc1nc(-c2ccccc2)cc(C(F)(F)F)n1)C(=O)N1CCC(C(N)=O)CC1 (centres undefined),114%
N#CCCn1nnc(-c2ccccc2F)n1,1%
C=CCOc1ccc(/C(O)=C2\C(=O)C(=O)N(CCCOC)C2c2ccc(O)c(OC)c2)cc1 (centres undefined),-1%
Cc1ccc(OCC(=O)OC2CCS(=O)(=O)C2)cc1 (centres undefined),21%
Cn1nnnc1SCC1=C(C(=O)O)N2C(=O)[C@@H](NC(=O)[C@@H](O)c3ccccc3)[C@@H]2SC1,-18%[12.8 µM]
CCCCNC(=O)c1cc2c(-c3ccc(Cl)cc3)nn(C)c2s1,26%
O=[N+]([O-])c1c(Cl)cc(Cl)cc1Cl,4%
COc1cc(OC)c(C2N(c3cc(C)on3)C(=O)C3CCCN32)cc1OC (centres undefined),6%
COc1ccc(-c2nc3cnc(N4CCNCC4)nc3n(Cc3cccs3)c2=O)cc1,60%
O=C(NO)c1ccc(OC(F)F)cc1,-9%
Cc1cnc(C(=O)Nc2cccc3cccnc23)cn1,-3%
O=C(NC1=NCCS1)NC12CC3CC(CC(C3)C1)C2,-2%
CCOc1ccc(C(=O)NCC(C)CN(C)C)cc1OCC (centres undefined),2%
O=S(=O)(c1ccc(Sc2nnc3ccccn23)nc1)N1CCOCC1,12%
O=C(CSc1nc2[nH]ncc2c(=O)n1-c1ccccc1)N1CCCc2ccccc21,82%
CC(NC(=O)Cn1cc2c(n1)CCCCC2)c1ccccc1 (centres undefined),29%
O=C(O)c1c(-c2ccccc2)c2oc3ccccc3c2[nH]c1=O,5%
COc1ccc(-c2cc(C(=O)NC3CCCC3)no2)cc1OC,11%
COCC(=O)N1CCC2(CCCN(C(=O)Nc3cccc(C#N)c3)C2)CC1,147%
CN(Cc1ccco1)c1cc(-c2cccnc2)ncn1,12%
CC(=O)c1cccc(N=C2C(=O)Nc3ccccc32)c1,-11%
Cn1c(C(=O)N2CCCC(C(=O)NCCCc3ccccc3)C2)cc2sccc21 (centres undefined),109%
CC12CN3C(O)C(C)(C1)CC(C)(C2)C3O (centres undefined),-11%
c1ccc(CCCNc2nnnc3ccccc23)cc1,-8%[5.75 µM]
CC(C)(Oc1ccc(Cl)cc1)C(=O)Nc1ncccn1,20%
CCC(=O)Nc1nc2cc(OC)ccc2s1,-15%
CC(=O)NC(CCS(C)(=O)=O)C(=O)Nc1cccc(C)c1C (centres undefined),4%

# Single values from the list:
# AmpC inh no det, CN(Cc1ccco1)c1cc(-c2cccnc2)ncn1 is entered as 12%
# AmpC inh no det, Cn1c(C(=O)N2CCCC(C(=O)NCCCc3ccccc3)C2)cc2sccc21 (centres undefined) is entered as 109%

# Reformatted field by field: two of the compounds above
CC(C)(Oc1ccc(Cl)cc1)C(=O)Nc1ncccn1
  AmpC inh no det = 20%

CCC(=O)Nc1nc2cc(OC)ccc2s1
  AmpC inh no det = -15%

# The listing continues.
SMILES,AmpC inh no det
C(=N\n1cnnc1)/c1ccc2ncccc2c1,0%
O=C(Nc1ccc2c(c1)OCO2)c1c(Cl)nc2sccn12,-2%
COc1ccccc1C(=O)Nc1ccc(C(=O)O)cc1,-6%
COc1ccc(CCNC(=O)CCn2c(=O)oc3ccccc32)cc1OC,18%
Cc1cccc(C)c1NC(=O)CS(=O)CC(=O)NC1CCCc2ccccc21 (centres undefined),8%
Cc1cc(C)nc(SC(C)C(=O)Nc2ccc(S(N)(=O)=O)cc2)n1 (centres undefined),-15%
Cc1nc2ccc(Cl)cc2[nH]1,-9%
O=C(O)c1cc2ccccc2c(Cc2cc3ccccc3c(C(=O)O)c2O)c1O (tested in a mixture with another compound),-16%[12.8 µM]
Cc1cc(Nc2cccc(F)c2)n2ncnc2n1,0%
CC1CCN(CCCNC(=O)c2ccc(CS(=O)(=O)Cc3ccccc3F)o2)CC1,-18%
N[C@H](Cn1ccc(=O)n(Cc2ccccc2C(=O)O)c1=O)C(=O)O,-5%
COc1ccccc1C1(CC(=O)O)CCOC(C(C)C)C1 (centres undefined),1%
Cc1cc(C(F)(F)F)nn1Cc1ccc(C(=O)NCc2ccco2)o1,30%
O=C(c1cccc(F)c1)N1CCC[C@@]2(CCN(Cc3ccccc3)C2)C1,8%
COCCOCC(O)CN1CCN(c2ccc(C)cc2)CC1 (centres undefined),-2%
COC(=O)c1ccc(NS(=O)(=O)c2ccc(SC)cc2)cc1,-21%
O=C(Cc1cccs1)N1CCCC(c2nc3c(nnn3Cc3ccccc3Cl)c(=O)[nH]2)C1 (centres undefined),28%
NC(N)=N/N=C(\c1ccc(Cl)cc1)C1CC1,-2%[5.75 µM]
ClC(Cl)(Cl)Cl,1%&-10%
CCc1cc2c(=O)c(-c3nc4ccccc4n3C)coc2c(CN2CCN(C)CC2)c1O,93%
Cc1cc(NCCN2CCOCC2)n2c(nc3ccccc32)c1C#N,0%
O=C1CC(C(=O)N(c2cccc(F)c2)C(C(=O)NC2CCCC2)c2ccccn2)CS1 (centres undefined),18%
O=C(O)C1CCN(S(=O)(=O)c2ccc(Oc3ccccc3)cc2)CC1,-8%
CCOc1cc(C(=O)N(C)Cc2cc3cc(OC)ccc3[nH]c2=O)cc(OCC)c1OCC,48%
CCS(=O)(=O)N1CCCC(C(=O)NCc2cccnc2)C1 (centres undefined),-11%
CCOc1ccc(CN2CCN(C(=O)c3ccccc3)CC2)cc1,38%
Cc1ccc(C(C(=O)NC2CCCC2)N2CCCCC2)cc1 (centres undefined),6%
CCOC(=O)Cc1csc(NC(=O)c2cccc(OC)c2)n1,1%
COc1cccc(OC)c1Oc1ccc(C(F)(F)F)cn1,24%
CCOCCOC(=O)C1=C(C)N(C)C(=O)NC1c1ccccc1F (centres undefined),3%
Cc1ccc(S(=O)(=O)N2CCN(C(=O)CSc3nc4ccccc4o3)C2)cc1,33%
CCc1c(C)nc(SCC(=O)Nc2ccc(Br)cc2)[nH]c1=O,-4%
C=CCn1c(COc2ccc(CC)cc2)nnc1SC/C(O)=C(\C#N)c1nc2ccccc2[nH]1,1.3µM*
CCOC(=O)c1oc2nc(C(C)C)c3c(c2c1N)CCC3,44%
C/C(=C\C(=O)Nc1nccs1)c1ccccc1,-6%
Cc1nc2nc(-c3ccccc3)cc(=O)n2[nH]1,-7%
COc1ccc(C(O)Cc2nc3ccccc3n2C)cc1OC (centres undefined),6%
COc1cc(C2CC(=O)N3CN(c4ccccc4C)CSC3=C2C#N)cc(OC)c1OC (centres undefined),48%
CCOC1(C(F)(F)F)NC(=O)N(Cc2ccc(OC)cc2)C1=O (centres undefined),3%
CCCCOc1ccccc1C1CC(=O)NC2=C1C(=O)CCC2 (centres undefined),11%
COc1ccc2cc3cc(C(=O)N4CCN(Cc5ccc6c(c5)OCO6)CC4)oc3nc2c1,92%
COc1cccc(C2C(C(=O)c3sc(C)nc3C)=C(O)C(=O)N2CCN2CCOCC2)c1 (centres undefined),10%
CC(NC(=O)C1C2C=CC(C2)C1C(=O)O)c1ccccc1 (centres undefined),9%
Cc1cccc2cc(C#N)c(SCCN3CCCCC3)nc12,3%
CCOC(=O)N1CCC(Nc2c(NCCCN3CCN(c4ccc(OC)cc4)CC3)c(=O)c2=O)CC1,46%
O=C1Nc2ccccc2C12OC1CCCCC1O2 (centres undefined),-5%
Cc1ccc(NC2c3ncccc3C(=O)N2c2ccccc2C)cc1C (centres undefined),68%
O=C(NCC1CCCO1)c1coc2nc3ccccc3nc12 (centres undefined),13%

# Reprinted from the part before: 3 compounds, then new ones.
SMILES,AmpC inh no det
O=C1Nc2ccccc2C12OC1CCCCC1O2 (centres undefined),-5%
Cc1ccc(NC2c3ncccc3C(=O)N2c2ccccc2C)cc1C (centres undefined),68%
O=C(NCC1CCCO1)c1coc2nc3ccccc3nc12 (centres undefined),13%
CC(=O)NC(Cc1ccccc1)C(=O)NC1CCN(C(=O)NC2CCCCC2)CC1 (centres undefined),23%
COc1ccc(CC(=O)NC2CCN(CC(=O)Nc3ccc4c(c3)OCCO4)CC2)cc1OC,17%
CC1(C(=O)NC2CCCCCCC2)CCC(=O)N1CCN1CCOCC1 (centres undefined),0%
Cc1cc(C(=O)OCC(=O)Nc2ccc(F)cc2F)c(C)o1,-18%
O=C(COc1ccccc1O)Nc1ccccc1Cl,-6%
O=C(c1cccs1)N1CCN(Cc2ccncc2)CC1,-3%
COc1ccccc1C(=O)Nc1ccc(N2CCN(Cc3ccccc3)CC2)cc1,40%
CC1c2[nH]c3ccccc3c2CCN1S(C)(=O)=O (centres undefined),-5%
CCOc1ccccc1N(CC(=O)Nc1ccc2c(c1)OCO2)S(C)(=O)=O,22%
CC(=O)N1CCC2(CCCN(c3ccncc3)C2)CC1,5%
O=c1c(-c2cccc(F)c2)nc2cncnc2n1-c1ccccc1,19%
COc1ccc(-c2oc(/N=C/N3CCOCC3)c(C#N)c2-c2ccc(OC)cc2)cc1,49%
Nc1cc(C(=O)O)ccc1Nc1ccccc1,-6%
Oc1ccc(-c2nc3ccccn3c2NCc2ccc3c(c2)OCO3)cc1,-13%
CN(c1ccccc1)C(c1ccc(F)cc1)c1nnnn1C1CCCC1 (centres undefined),8%
CCOC(=O)c1cc2c(=O)n3ccccc3nc2n(CCOC)c1=NC(=O)C(C)(C)C,97%
COC(=O)c1ccc(C(NC(=O)OCc2ccccc2)/C(F)=C/[C@@H](C)C(=O)NC2CCCCC2)cc1 (some centres undefined),32%
Cc1cccc(N2CCN(S(C)(=O)=O)CC2)c1C,16%
COC(=O)c1ccc(C)c(NC(=O)CN(c2cc(OC)ccc2OC)S(C)(=O)=O)c1,36%
COc1ccc(C)cc1NC(=O)CSc1nnc(-c2ccc(Br)cc2)o1,16%
NCCS,-1%
CCOc1cccc(NC(=O)CSc2nncn2N)c1,-12%
CCn1c(CNC(=O)c2ccccc2)nc2ccccc21,6%
CN(C)S(=O)(=O)c1ccc(NC(=O)C2COc3ccccc3O2)cc1 (centres undefined),-6%
NC(N)=NCCCCCCCCCCN=C(N)N,13%
COc1ccccc1N1CCN(Cc2c(F)cccc2Cl)CC1,7%
CCOc1ccc(-c2nnn(CC(=O)NCc3ccc(F)cc3)n2)cc1OCC,14%
CC1Oc2ccccc2N(Cc2ccccc2Cl)C1=O (centres undefined),11%
CC1CC(C)CN(C(=O)Cn2c(=O)n(CCCCC(=O)NCc3ccco3)c(=O)c3ccccc32)C1 (centres undefined),82%
COc1cc(NC(=O)c2c(F)c(F)c(F)c(F)c2F)c(OC)cc1Cl,-2%
CC1CC(C)CN(C(=O)COC(=O)c2cc3ccccc3cc2O)C1 (centres undefined),18%
